NPR1 antag = human Npr1 receptor antagonism. actives 1.6% (n = 76,000). Potency, µM (series often up to 46.3 µM), for the others: at the highest dose activity change, negative = inhibition, hits mostly inhibitors. P16066. HEK293 hNpr1 GloSensor cGMP, ANP-stimulated luminescence; active = well fitted inhibition curve with a large enough effect; inconclusive = small, poorly fitted or top-dose-only effect; inactive = no such curve, though single readings can be large or run the other way;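 also: nearly all actives have a fitted effect of over 60% in size; nearly all hits also lower the signal before the agonist is added; a reference antagonist and vehicle were the controls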
Target sequence (P16066 whole entry, looked up): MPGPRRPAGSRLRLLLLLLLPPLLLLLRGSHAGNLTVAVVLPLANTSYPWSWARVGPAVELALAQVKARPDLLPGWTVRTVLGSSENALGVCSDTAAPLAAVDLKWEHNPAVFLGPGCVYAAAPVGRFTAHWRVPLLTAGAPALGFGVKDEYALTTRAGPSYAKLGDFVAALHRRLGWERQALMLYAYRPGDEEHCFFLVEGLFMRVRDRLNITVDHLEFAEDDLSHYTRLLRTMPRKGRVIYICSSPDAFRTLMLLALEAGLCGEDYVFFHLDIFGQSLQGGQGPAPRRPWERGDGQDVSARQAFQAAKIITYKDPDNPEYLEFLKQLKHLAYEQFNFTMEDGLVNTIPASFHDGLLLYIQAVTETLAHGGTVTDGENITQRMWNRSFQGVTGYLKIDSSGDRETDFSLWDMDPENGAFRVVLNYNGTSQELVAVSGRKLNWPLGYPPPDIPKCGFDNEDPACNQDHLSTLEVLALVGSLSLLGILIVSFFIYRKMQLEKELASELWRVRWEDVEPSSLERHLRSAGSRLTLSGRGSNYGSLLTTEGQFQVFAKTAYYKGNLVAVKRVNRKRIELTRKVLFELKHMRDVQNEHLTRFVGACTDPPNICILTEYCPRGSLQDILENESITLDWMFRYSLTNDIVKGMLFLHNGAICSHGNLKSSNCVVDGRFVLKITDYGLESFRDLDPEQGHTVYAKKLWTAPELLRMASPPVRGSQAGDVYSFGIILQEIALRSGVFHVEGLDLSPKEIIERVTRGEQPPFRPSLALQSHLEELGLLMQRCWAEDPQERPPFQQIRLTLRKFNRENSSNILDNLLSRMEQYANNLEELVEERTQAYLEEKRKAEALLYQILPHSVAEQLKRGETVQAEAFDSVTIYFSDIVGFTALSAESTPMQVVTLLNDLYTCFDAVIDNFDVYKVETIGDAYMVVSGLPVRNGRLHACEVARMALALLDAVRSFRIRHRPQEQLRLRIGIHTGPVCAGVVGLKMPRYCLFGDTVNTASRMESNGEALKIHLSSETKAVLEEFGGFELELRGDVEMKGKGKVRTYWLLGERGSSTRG
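HEK293 cells stably expressing human Npr1 and cGMP GloSensor pGS-40F, loaded 2 h with 2% GloSensor reagent, given compound 30 min at room temperature. Luminescence read before and 20 min after 0.1 nM hNppA.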
Active calls of the source: *; [ ] = another dose, or the depositor's remark. % is scaled to controls: 0 for no effect and ±100 for the full control effect; potency is read from the fitted curve at half-maximal effect. This is a subset; the hit share may differ from the screen's.

Results for OCC1(Cc2ccccc2F)CCCN(c2nccc(C(F)(F)F)n2)C1 (stereo unspecified) ?
NPR1 antag: -10.2%

How did C=CC[C@@H]1CC=C[C@@H](C)N1C(=O)c1cc(OC)ccc1OC1CCN(C(=O)C2CC2)CC1 do in these assays?
NPR1 antag: -27.1%

What do the screens show for `Cc1nc(C2CC(O)C2)cc(N(C)Cc2cnc3ccccc3c2)n1` (stereo unspecified)?
NPR1 antag: -1.6%

How did Cc1nc2cc(S(=O)(=O)N3CCOCC3)ccc2n1CCNC(=O)C1(C)CC1 do in these assays?
NPR1 antag: 0.6%

What do the screens show for `Cc1ccc(C2=NC3(CCN(C(=O)c4ccc5c(c4)OCO5)CC3)ON2)cc1`?
NPR1 antag: -22.4%

How did CCn1c(C2CCN(C(=O)CCn3nnnc3C)CC2)nn(C)c1=O do in these assays?
NPR1 antag: 9.3%

How did COCCNC(=O)[C@@H]1C[C@H](Oc2cccnc2)CN1C(=O)C1(C)CCCCC1 do in these assays?
NPR1 antag: -0.6%

Results for COc1ccc(Cn2c(C3CCN(C(=O)Cc4ccccc4)CC3)n[nH]c2=O)cc1 ?
NPR1 antag: 0.2%

What do the screens show for `COCCc1noc(C2CN(C(=O)COc3ccc(F)cc3)C2)n1`?
NPR1 antag: -2.9%

Results for O=C(CCn1nnnc1CN1CCOCC1)N1CCN(c2nc3ccccc3s2)CC1 ?
NPR1 antag: 2.2%

What do the screens show for `O=C(NC1CCCCC1)N1CCC(Cc2nc(-c3ccccc3)n[nH]2)C1` (stereo unspecified)?
NPR1 antag: 0.6%

Results for Cn1cc(-c2ccsc2)c2nc(CN3CCNC(=O)C3)cn2c1=O ?
NPR1 antag: -0.1%[70.6 µM]

Reprinted from the part before: 2 entries; new compounds follow.
What do the screens show for `O=C(NC1CCCCC1)N1CCC(Cc2nc(-c3ccccc3)n[nH]2)C1` (stereo unspecified)?
NPR1 antag: 0.6%

Results for Cn1cc(-c2ccsc2)c2nc(CN3CCNC(=O)C3)cn2c1=O ?
NPR1 antag: -0.1%[70.6 µM]

How did CC(C)NCC1(COc2ccccc2)C[C@@H](O)[C@@H](O)C1 (stereo partly specified) do in these assays?
NPR1 antag: 7.6%[70.6 µM]

What do the screens show for `O=C(Cc1ccccn1)N1CCCC(c2nn(-c3ccccc3)c(=O)[nH]2)C1` (stereo unspecified)?
NPR1 antag: -16.5%

What do the screens show for `COC[C@@H]1[C@H](C(=O)Nc2ccc(N3CCOCC3)cc2)CCC(=O)N1C`?
NPR1 antag: -8.0%

Results for COC[C@@H]1CN(C(=O)c2ccc(Cl)cc2OC)C[C@H]1C(N)=O ?
NPR1 antag: 5.9%

Results for CCCN(CCC)C(=O)[C@H]1CCC[C@H]1NC(=O)c1ccc(OC)nc1 ?
NPR1 antag: -2.8%

Results for CCc1cccc(C)c1NC(=O)Cn1ccn2nc3c(c2c1=O)CCCC3 ?
NPR1 antag: -10.5%

What do the screens show for `CC(C)(C)c1ccc(C(=O)N2CCC3(C2)NC(=O)N(Cc2ccc(Cl)cc2)C3=O)cc1` (stereo unspecified)?
NPR1 antag: -20.5%

How did CC1CCC2(CC1)OCC(C(=O)NC1CCCCC1)N2C(=O)c1ccc(F)cc1 (stereo unspecified) do in these assays?
NPR1 antag: -3.0%

What do the screens show for `CC1(c2noc(C3CC3)n2)CCN(C(=O)CCC(=O)N2CC(=O)Nc3ccccc32)CC1`?
NPR1 antag: -7.3%

What do the screens show for `Cc1ccc(C(=O)N2CCC3(CC2)CC(N(C(=O)NC(C)C)C2CC2)CCO3)cn1` (stereo unspecified)?
NPR1 antag: 2.7%

How did COc1ccc(Nc2cnc3ccc(-c4ccc(F)cc4)nn23)cn1 do in these assays?
NPR1 antag: 3.2%[70.6 µM]

Results for CC(C)CCN1CCC2(CC1)NC(=O)c1ccccc1O2 ?
NPR1 antag: -1.2%[70.6 µM]

In the list so far, these have a Cl atom.
Results for COC[C@@H]1CN(C(=O)c2ccc(Cl)cc2OC)C[C@H]1C(N)=O ?
NPR1 antag: 5.9%

What do the screens show for `CC(C)(C)c1ccc(C(=O)N2CCC3(C2)NC(=O)N(Cc2ccc(Cl)cc2)C3=O)cc1` (stereo unspecified)?
NPR1 antag: -20.5%

Following part.
Results for Cc1noc2c(N(C)C)cc(-c3cccc(C(F)(F)F)c3)nc12 ?
NPR1 antag: -23.9%[70.6 µM]

Results for COCC(=O)N1CCC(C(=O)NCC2COc3cc(OC)ccc3C2)CC1 (stereo unspecified) ?
NPR1 antag: 5.8%

How did CCn1nccc1C(=O)N1C[C@@H](Oc2cccnc2)C[C@@H]1C(=O)NCCOC do in these assays?
NPR1 antag: 2.0%

What do the screens show for `Cc1ccc(C)c(C(=O)N2CCC(C3CCN(C)CC3)C2)c1` (stereo unspecified)?
NPR1 antag: 5.2%

Results for Cc1nc(C)c(C(=O)N[C@@H]2CN(Cc3cccnc3)C[C@H]2CN(C)C)s1 ?
NPR1 antag: 6.3%

How did CN1CC2(CCN(C(=O)c3n[nH]c4ccccc34)CC2)CC1C(=O)N1CCOCC1 (stereo unspecified) do in these assays?
NPR1 antag: -1.0%

What do the screens show for `Cn1cnnc1CC1CCN(C(=O)c2cn3cc(Cl)ccc3n2)CC1`?
NPR1 antag: -3.2%

Results for CCN(C(=O)CN1C(=O)NC2(CCC(C)CC2)C1=O)c1ccccc1 (stereo unspecified) ?
NPR1 antag: -5.7%

How did COc1ccc(-c2cc(N3CCC(NC(=O)c4ccc5c(c4)OCO5)C3)n[nH]2)cc1 (stereo unspecified) do in these assays?
NPR1 antag: -7.1%

How did O=C1NC2(CCN(Cc3ccc(C(F)(F)F)cc3)CC2)Oc2ccccc21 do in these assays?
NPR1 antag: 1.6%

How did C=CCOC(=O)C1=C(C)N=C2SC=C(CC(=O)N3CCOCC3)N2C1c1ccc(C)cc1C (stereo unspecified) do in these assays?
NPR1 antag: inconclusive

What do the screens show for `COCCNC(=O)[C@H]1C[C@H](Oc2cccnc2)CN1C(=O)NCCc1ccccc1`?
NPR1 antag: 2.6%

Results for Cc1ccc(C(=O)N(CC(C)C)CC2CN(C(=O)c3ccc4c(c3)OCO4)CCO2)cc1 (stereo unspecified) ?
NPR1 antag: -4.9%

What do the screens show for `COc1ccc(C2Cn3nnc(-c4noc(-c5ccco5)n4)c3CO2)cc1` (stereo unspecified)?
NPR1 antag: -28.4%

How did CCCNC(=O)C(NC(=O)c1ccc(OC)cc1)C1CCN(C(=O)c2ccccc2OC)CC1 (stereo unspecified) do in these assays?
NPR1 antag: 2.4%

Results for N#Cc1cccc(C(=O)N2CC(COc3ccccc3)C3(C2)CN(c2ccccc2)C3)c1 (stereo unspecified) ?
NPR1 antag: -0.8%[70.6 µM]

What do the screens show for `COCCNC(=O)c1ccc(OC2CCN(Cc3ccc(C)s3)CC2)c(Cl)c1`?
NPR1 antag: 1.6%

What do the screens show for `CCn1cc(C(=O)N2CC(COC)C3(CCNCC3)C2)cn1` (stereo unspecified)?
NPR1 antag: 7.1%

Results for Cc1cc(C(=O)N2C[C@@H](CN(C)C)[C@@H](CO)C2)cs1 ?
NPR1 antag: 12.0%

Results for CC(C)n1cnnc1CC1CCCN(C(=O)c2n[nH]c3ccccc23)C1 (stereo unspecified) ?
NPR1 antag: -2.6%

How did Cc1ccc(CC(=O)N[C@@H]2CN(c3ccncn3)C[C@H]2CN(C)C)cc1 do in these assays?
NPR1 antag: 0.5%

Results for O=C(C[C@@H]1CCNC[C@@H]1Cc1cc(-c2ccccc2)on1)NCCN1CCOCC1 ?
NPR1 antag: -6.1%[70.6 µM]

How did COc1cccc(CN2CCNc3cnc(Nc4ccccc4)cc3C2)c1 do in these assays?
NPR1 antag: inconclusive

What do the screens show for `CCn1cc(S(=O)(=O)NCCc2noc(COC)n2)cn1`?
NPR1 antag: 7.3%

What do the screens show for `COc1ccc(CNc2ncncc2-c2nc(-c3ccccc3)no2)cc1`?
NPR1 antag: -7.5%

Results for COCCOCC(=O)N1CCCN(C(=O)C2CC2)C(c2ccccc2)CC(=O)NCC1 (stereo unspecified) ?
NPR1 antag: 1.7%

What do the screens show for `CCc1noc(-c2cccn3c(CNC(=O)c4ccco4)nnc23)n1`?
NPR1 antag: 1.1%

What do the screens show for `COc1ccc(C(=O)N2CCCc3nc(C)nc(-c4ccc(O)cc4)c3C2)cc1`?
NPR1 antag: -3.0%

What do the screens show for `COc1cc(OC)cc(-c2onc(C)c2C(=O)NCCCSC)c1`?
NPR1 antag: 5.9%

Results for CCCn1cnc2c1CN(S(C)(=O)=O)[C@H](C(=O)OC)C2 ?
NPR1 antag: -0.1%[70.6 µM]

What do the screens show for `COCCN1C(=O)c2ccccc2C(C(=O)Nc2ccc(F)cc2)C12CCCCC2` (stereo unspecified)?
NPR1 antag: -1.3%

What do the screens show for `CN1CCN(C(=O)CCc2nc(C3CCCN3C(=O)NCCc3ccccc3)no2)CC1` (stereo unspecified)?
NPR1 antag: 3.7%

What do the screens show for `COCCN1C(=O)CC[C@]2(C(=O)NCc3ccco3)CCCC[C@@H]12`?
NPR1 antag: -2.4%

How did Cc1ccsc1CN1CC(C(=O)NCc2ccncc2)C2(CCOCC2)C1 (stereo unspecified) do in these assays?
NPR1 antag: 1.8%

What do the screens show for `COC(=O)[C@H](Cc1ccc(OC)cc1)NC(=O)[C@H]1CN(S(=O)(=O)c2ccccc2)CCN1C(=O)NC1CCCCC1`?
NPR1 antag: -1.7%

What do the screens show for `C=CCn1cc(CN(Cc2ccc(SC)cc2)C2CC2)c(C)n1`?
NPR1 antag: inconclusive

An excerpt from above in order of SMILES length, ascending:
What do the screens show for `CCc1noc(-c2cccn3c(CNC(=O)c4ccco4)nnc23)n1`?
NPR1 antag: 1.1%

What do the screens show for `COCCN1C(=O)c2ccccc2C(C(=O)Nc2ccc(F)cc2)C12CCCCC2` (stereo unspecified)?
NPR1 antag: -1.3%

What do the screens show for `COc1ccc(C(=O)N2CCCc3nc(C)nc(-c4ccc(O)cc4)c3C2)cc1`?
NPR1 antag: -3.0%

New compounds follow.
Results for Clc1ccccc1C1(c2ccnc(C3CC3)n2)CCNCC1 ?
NPR1 antag: -2.6%

What do the screens show for `Cn1c(CNC(=O)C23CCCC=C2N(C2CCCC2)C(=O)CC3)nc2ccccc21` (stereo unspecified)?
NPR1 antag: -4.4%

Results for COc1cccc(-c2cc3c(=O)n(CCNC(=O)c4ccccc4)ccn3n2)c1 ?
NPR1 antag: -28.7%

What do the screens show for `Cc1ccc(NC(=O)N2CCC(OC3CCN(S(C)(=O)=O)CC3)CC2)c(C)c1`?
NPR1 antag: -6.5%

What do the screens show for `CN(CC(O)CO)c1ncc(C(C)(C)C(=O)O)c(N2CCOCC2)n1` (stereo unspecified)?
NPR1 antag: -1.5%

How did CCCN(CC1CCOC1)C(=O)c1ccc(C(F)(F)F)cc1 (stereo unspecified) do in these assays?
NPR1 antag: -1.8%

What do the screens show for `Cc1cc2c(c(=O)n(-c3ccccc3)c(=O)n2CC(=O)Nc2cccc(F)c2)n1C`?
NPR1 antag: 4.3%

Results for Cc1nc(-c2cccc(Cl)c2)n(CC(=O)Nc2ccc3c(c2)OCO3)c(=O)c1CCO ?
NPR1 antag: -22.4%

How did O=C1CCN(S(=O)(=O)c2ccccc2)CCCN(C(=O)c2ccco2)CCN1 do in these assays?
NPR1 antag: 0.9%

What do the screens show for `Cc1ccc(C(=O)N2C[C@@H](Oc3ccccc3)C[C@H]2C(=O)NC2CC2)s1`?
NPR1 antag: -2.7%

How did COc1cccc(NC(=O)CC2CCCN(c3cn[nH]c(=O)c3)C2)c1 (stereo unspecified) do in these assays?
NPR1 antag: -0.6%

Results for Cc1noc(C)c1-c1cc2c(c(-c3cccc(CO)c3)c1)C(=O)N(C)C2 ?
NPR1 antag: -0.8%[70.6 µM]

What do the screens show for `Cc1nccn1CC(=O)N1C[C@@H](COCC2CC2)[C@H](c2ccccn2)C1`?
NPR1 antag: 1.0%

What do the screens show for `C[C@@H](NC(=O)c1cccn1C)c1c(-c2ccc(F)cc2)noc1C(=O)O`?
NPR1 antag: -5.1%[70.6 µM]

How did CC(=O)N1CCC(C(=O)NCC2CCN(c3cc(-c4ccc(Cl)cc4)[nH]n3)CC2)CC1 do in these assays?
NPR1 antag: -15.1%

Results for O=C(c1ccccc1OCC1CCCN(Cc2ccncc2F)C1)N1CCCCC1 (stereo unspecified) ?
NPR1 antag: -10.2%

How did CC(C)c1nc2c(c(-c3ccc(O)cc3)n1)CN(C(=O)Nc1ccccc1)CC2 do in these assays?
NPR1 antag: 2.1%

How did Fc1cccc(C2CCCCCN2Cc2cn(-c3ccccc3)nn2)c1 (stereo unspecified) do in these assays?
NPR1 antag: -1.9%

What do the screens show for `O=C(c1ccccc1)N1CCN2C(=O)N(Cc3ccccc3)C(=O)[C@H]2C1`?
NPR1 antag: 4.7%[70.6 µM]

What do the screens show for `O=C1OCCN1CCNc1ccc(-c2nc(-c3ccccc3F)no2)cn1`?
NPR1 antag: inconclusive

Compound activity from PubChem.
